YjeE inh = YjeE (TsaE) inhibition, E. coli | P0AF67 | purified YjeE, fluorescence polarisation of a bound ADP probe | Potency, µM | 71,000 compounds, 0.05% hits | AID 605; active = well fitted falling curve; inconclusive = weaker or top-dose-only fall, or a rising curve; inactive = flat or poorly fitted curve;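 note: top concentration of the series not given in the record; excess ADP was the control for the full effect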
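Purified YjeE (10 uM) with BODIPY Texas Red-labeled ADP probe (2 uM); compounds pin-transferred, 15 min at room temperature. Binding inhibition read as decreased fluorescence polarization; ADP titration as control.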
PK Bst = pyruvate kinase (B. stearothermophilus) modulation; partly purified Bacillus stearothermophilus pyruvate kinase, luminescence ATP production; ribose 5-phosphate activator present at AC10; Potency, µM; 51,000 compounds, 1.2% hits; in the data active means potency below about 11 µM; inconclusive means mostly about 12 µM to 25 µM; inactive means weaker than that;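 the screen sought inhibitors and activators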;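 note: potency is the fitted concentration of half-maximal effect; scaled between full activation by ribose 5 phosphate and full inhibition by luteolin; about four in five hits inhibit and the cells do not say which; series up to 57 µM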
Numbers without * were called inactive; i = inactive; ? = inconclusive; . = no result given.

YjeE inh | PK Bst | smiles
i | >11 | COC(=O)c1[nH]c2cc(C)ccc2c1NC(=O)CN1CCN(C(=O)c2ccco2)CC1
i | >57 | Cc1cc(NC(=O)CSc2nc(-c3ccco3)cc(C(F)(F)F)n2)no1
. | >26 | C=C(C)CC1N(c2cccc(OC)c2)C(=O)[C@@H]2C(C(=O)O)[C@H]3C=C[C@@]12O3 (stereo not given in full)
i | >57 | COC(=O)N1CCN(c2ccc(Cl)c(Cl)c2)CC1
i | . | Cc1nc2ccccc2c2oc(C(=O)NCc3ccccn3)cc12
i | >57 | CCc1nnc(NC(=O)CSc2nnc(CNc3ccc(F)cc3)n2C2CCCCC2)s1
i | . | COc1ccc2c(Cc3c4ccccc4cc4ccccc34)cncc2c1O
i | >57 | c1ccc2c(c1)nc1n2CN(Cc2ccc3c(c2)OCO3)CN1
i | >57 | CC(=O)c1c(C)n(-c2ccc(N(C)C)cc2)c2ccc(OCC(N)=O)cc12
i | . | COc1ccc(OCC(=O)N2CC3(C)CC2CC(C)(C)C3)cc1 (stereo not given)
i | >57 | CC(C)CCNC(=O)CN(CC1CCCO1)C(=O)CCC(=O)Nc1ccccn1 (stereo not given)
i | >57 | CN(C)C(=O)N1CCCC(C(=O)NCc2ccccc2Cl)C1 (stereo not given)
i | i | CCc1c(C)nc(Nc2nc(C)c3cc(OC)ccc3n2)[nH]c1=O
i | . | CNC(=O)CN1C(=O)CSc2ncccc21
. | >26 | CCCCCCOc1ccc(C(=O)n2cnc(N)n2)cc1
i | . | Cc1ccc(OCCN2CCCCCC2)c(C)c1
i | >57 | NC(=O)C1CCN(CC(=O)N2c3ccccc3CCc3ccccc32)CC1
i | >57 | CCC(c1nnnn1Cc1ccc2c(c1)OCO2)N1CCN(c2ccc(F)cc2)CC1 (stereo not given)
i | . | Cc1nc(N2CCOCC2)c2nc(-c3ccccc3)n(CCCN3CCCCC3C)c2n1 (stereo not given)
i | . | COc1ccc(-c2nc3cnc(N(C)C)nc3n(C)c2=O)cc1
i | . | Oc1ccccc1-c1nnc(COc2ccccc2)o1
i | >57 | Cc1n[nH]c(C)c1S(=O)(=O)N1CCCC(C(=O)Nc2nccs2)C1 (stereo not given)
i | . | CCCCCCCC(=O)OCC(COC(=O)CCCCCCC)OC(=O)CCCCCCC
i | >57 | CC(=O)Nc1cccc(NC(=O)C2CCCN2C(=O)Nc2ccc(C)cc2)c1 (stereo not given)
i | >57 | Cc1cc(=O)[nH]c(/N=C(/NC(=O)c2ccccc2)Nc2ccc3c(c2)OCCO3)n1
i | . | Cc1nnc(NC(=O)CSc2nnc(Cc3cccn3C)n2C)s1
. | 1.3* | Cc1ccc(C(=O)/C=C/Nc2cccc(O)c2)cc1
i | >57 | Cc1ccc(N2CCN(CC(O)COC3CCCCC3)CC2)cc1 (stereo not given)
i | >57 | O=S(=O)(c1ccc(NC2CCCCC2)cc1)N1CCOCC1
i | >57 | O=C(Cn1cnc2ccccc2c1=O)NCCC(=O)N1CCN(Cc2ccccc2)CC1
i | >57 | O=C(OCCN1CCCCC1)c1ccccc1Cl
. | >26 | CC(C)CC(NC(=O)OC(C)(C)C)C(=O)NCc1ccccc1 (stereo not given)
i | >57 | CCCCOC(=O)C1=C(C)Nc2nnnn2C1c1ccc(OC)c(OC)c1OC (stereo not given)
i | >57 | CC(C)C(NC(=O)CC12CC3CC(CC(C3)C1)C2)C(=O)O (stereo not given)
i | >57 | O=C(NCCC1=CCCCC1)C1CCCN(S(=O)(=O)c2ccccc2)C1 (stereo not given)
i | . | CC1CCN(S(=O)(=O)c2ccc(NC(=O)c3cccs3)cc2)CC1
i | >57 | O=C(CSc1nnc2scc(-c3ccccc3)n12)NCc1ccco1
i | >57 | Cc1ccc(Cn2nnc(C(=O)Nc3cccc(C)c3C)c2N)cc1
i | >57 | Cc1cc(=O)n(C)c(=O)n1CCCNc1ccccc1
i | >57 | COc1ccccc1NC(=O)C1=C(C)NC(SCC(=O)c2ccccc2)=C(C#N)C1c1ccco1 (stereo not given)
i | i | CCN(CC)S(=O)(=O)c1ccc(C(=O)NCCc2cc3c(OC)ccc(OC)c3[nH]c2=O)cc1
i | i | c1ccc2c(c1)NC1(CCCCC1)n1c-2nc2ccccc21
i | . | CCOc1ccc(N(CC(=O)N2CC=C(c3ccccc3)CC2)S(=O)(=O)c2c(C)noc2C)cc1
. | >26 | CCCCCCOc1ccc(N2C(=O)CC(N3CCN(C(=O)c4ccco4)CC3)C2=O)cc1 (stereo not given)
i | >57 | Cc1ccc(S(=O)(=O)NCCN(CCNS(=O)(=O)c2ccc(C)cc2)S(C)(=O)=O)cc1
i | >57 | O=C(CSc1nnnn1C1CCCC1)Nc1cccc(NC(=O)c2ccco2)c1
i | >57 | COc1cc(OC)cc(C(=O)N2CCC(n3c(C)nc4cc(F)ccc43)CC2)c1
i | . | CCCCCc1nnc(NC(=O)OCCC)s1
i | . | CCOc1ccc(N(CC(=O)Nc2ccc(C)c(C)c2)S(=O)(=O)c2c(C)noc2C)cc1
i | >57 | Cc1nnc(SCC(=O)Nc2sccc2C(N)=O)n1Cc1ccccc1

Next part.
YjeE inh | PK Bst | smiles
i | >57 | CC(=O)Nc1ccc(S(=O)(=O)Nc2cc(C)c(-n3nc4ccccc4n3)cc2O)cc1
i | ? | COc1cc(NC(=O)C2CCN(S(=O)(=O)c3cccc4nonc34)CC2)cc(OC)c1
i | . | CN(C)c1ccccc1CN1CCCN(Cc2ccccc2N(C)C)C1c1ccncc1
i | >57 | Cc1cccc(C)c1NC(=O)CCCSc1nnnn1C
i | >57 | COCCn1c(Sc2nc(C)cs2)nc2c1c(=O)[nH]c(=O)n2C
i | >57 | O=C(Nc1ccccc1)c1ccc(S(=O)(=O)N(CCO)CCO)cc1
i | >57 | COc1ccc(C)cc1S(=O)(=O)N(C)CC(=O)Nc1ccc2c(c1)OCO2
i | >57 | Cc1ccc(C(=O)CSc2nc3ccccc3c(=O)n2N)o1
i | >57 | COc1ccccc1Nc1nc(N)nc(CN2CCN(c3ccccc3F)CC2)n1
i | . | c1ccc(Nc2n[nH]nc2-c2ccccc2)cc1
i | >57 | CCCCN(CC)CCNc1c(N2CCN(C(=O)OCC)CC2)c(=O)c1=O
i | . | COC(=O)[C@@]1(Cc2ccc(F)cc2)[C@H]2c3cc(C(=O)N(C)C)n(CCCNc4ccc(C(F)(F)F)cc4Cl)c3C[C@H]2CN1C(=O)c1ccccc1
i | >57 | CCC1S/C(=C(\C#N)C(=O)NCc2ccco2)N(c2ccc(Br)cc2)C1=O (stereo not given)
i | . | COc1cc(CNc2ccc3[nH]c(=O)[nH]c3c2)ccc1OCC(=O)NC(C)(C)C
i | . | S=C(NC1CCCCC1)NC1CCCCC1
i | >57 | CCOC(=O)N1CCC(NC(=O)c2sc(-n3cccc3)nc2C)CC1
i | . | Cc1ccc(S(=O)(=O)Cc2ccc(C(=O)N3CCCCCC3)o2)cc1
i | >57 | CCCn1nnc(NC(=O)c2cc3ccccc3o2)n1
i | . | CCOc1ccc(N2C(=O)c3ccccc3C2O)cc1 (stereo not given)
i | >57 | O=C(NCc1cccs1)c1ccc(Cl)s1
i | >57 | CC1=C(C(=O)NCCN2CCN(C)CC2)C2(CCC(C)CC2)OC1=O (stereo not given)
i | >57 | CCOC(=O)c1[nH]c2ccc(F)cc2c1NC(=O)C(C)N1CCc2cc(OC)c(OC)cc2C1 (stereo not given)
. | >11 | CCCCc1nc(N2CCOCC2)c(C#N)c2c1CCCC2
. | >26 | CC(C)C1=C2OC(N)=C(C#N)C(C#N)=C2C(C)CC1 (stereo not given)
i | . | O=C(NCc1ccccc1)c1noc2c1CCCCC2
i | >57 | O=C(COc1ccc(OCc2ccccc2)cc1)NC1CCOC1=O (stereo not given)
i | . | COc1ccc(C2N3CC4(C)CN2CC(C)(C3)C4O)cc1 (stereo not given)
i | i | Cc1c(C(=O)NCCN2CCOCC2)sc2nc(-c3ccc(F)cc3)cn12
i | . | CC1(C)[C@@H]2CC[C@]1(C)[C@@H](OC(=O)/C=C\c1ccccc1)C2
i | >57 | Cc1ccc(NC(=O)CS(=O)CC(=O)N(c2ccccc2)C(C)C(=O)NC2CCCC2)cc1 (stereo not given)
i | >11 | COc1ccc(-c2nc(C#N)c(N3CCCCCC3)o2)cc1OC
i | >57 | Cc1ccc(NC2=CC(=O)CCC2)cc1C
i | >57 | CCCc1nc2oc3c(N4CCNCC4)ncnc3c2c2c1CCCC2
i | . | O[C@H]([C@H](O)[C@@H](O)c1nc2ccccc2[nH]1)[C@@H](O)c1nc2ccccc2[nH]1
i | >57 | Cc1nnc(C)n1/N=C/c1ccc(C(C)C)cc1
i | >57 | COc1ccccc1NC(=O)CC1C(=O)Nc2c1c(=O)n(C)c(=O)n2C (stereo not given)
i | . | CCCn1cnc2c(cnn2-c2ccc(F)cc2)c1=O
i | . | COCCCN1CC23C=CC(O2)C(C(=O)O)C3C1=O (stereo not given)
i | . | COCCn1c(=O)c(-c2cc(F)cc(F)c2)nc2cnc(Oc3ccccc3)nc21
i | >57 | CCCOc1ccc(C2C(C(=O)OC)=C(C)N=C3SCCC(=O)N32)cc1OCC (stereo not given)
i | >57 | N#Cc1cc2c(=O)n3ccccc3nc2n(CCN2CCOCC2)c1=O
i | >57 | CCOc1cc(NC(=O)c2ccco2)c(OCC)cc1NC(=O)CCc1ccc(OC)cc1
i | >57 | CCCN(CCC)CCSc1nc(O)c(C(C)C)c(=O)[nH]1
i | >57 | CCOC(=O)c1cnc(SCC(=O)N2CCc3ccccc32)nc1N
i | >57 | CC1CCC(N2CCN(S(C)(=O)=O)CC2)CC1 (stereo not given)
i | >57 | CN(CC(=O)Nc1ccc(F)c(Cl)c1)S(=O)(=O)c1cccc2nsnc12
i | >57 | O=S(=O)(Nc1nccs1)c1ccc2c(c1)OCCO2
i | >57 | Cc1onc(-c2ccccc2)c1C(=O)NCC1CCCO1 (stereo not given)
i | . | COCCCN1C(=O)C(=O)/C(=C(/O)c2ccc(OCC(C)C)cc2C)C1c1cccnc1 (stereo not given)
i | >57 | COc1ccc(-c2noc(CCC(=O)NCCCN3CCC(C)CC3)n2)cc1

Reformatted: entries from further up.
molecule,YjeE inh,PK Bst
O=C(COc1ccc(OCc2ccccc2)cc1)NC1CCOC1=O (stereo not given),i,>57
COc1ccc(C2N3CC4(C)CN2CC(C)(C3)C4O)cc1 (stereo not given),i,.
Cc1c(C(=O)NCCN2CCOCC2)sc2nc(-c3ccc(F)cc3)cn12,i,i
CC1(C)[C@@H]2CC[C@]1(C)[C@@H](OC(=O)/C=C\c1ccccc1)C2,i,.
Cc1ccc(NC(=O)CS(=O)CC(=O)N(c2ccccc2)C(C)C(=O)NC2CCCC2)cc1 (stereo not given),i,>57
COc1ccc(-c2nc(C#N)c(N3CCCCCC3)o2)cc1OC,i,>11
Cc1ccc(NC2=CC(=O)CCC2)cc1C,i,>57
CCCc1nc2oc3c(N4CCNCC4)ncnc3c2c2c1CCCC2,i,>57
O[C@H]([C@H](O)[C@@H](O)c1nc2ccccc2[nH]1)[C@@H](O)c1nc2ccccc2[nH]1,i,.
Cc1nnc(C)n1/N=C/c1ccc(C(C)C)cc1,i,>57
COc1ccccc1NC(=O)CC1C(=O)Nc2c1c(=O)n(C)c(=O)n2C (stereo not given),i,>57
CCCn1cnc2c(cnn2-c2ccc(F)cc2)c1=O,i,.
COCCCN1CC23C=CC(O2)C(C(=O)O)C3C1=O (stereo not given),i,.
COCCn1c(=O)c(-c2cc(F)cc(F)c2)nc2cnc(Oc3ccccc3)nc21,i,.
CCCOc1ccc(C2C(C(=O)OC)=C(C)N=C3SCCC(=O)N32)cc1OCC (stereo not given),i,>57
N#Cc1cc2c(=O)n3ccccc3nc2n(CCN2CCOCC2)c1=O,i,>57
CCOc1cc(NC(=O)c2ccco2)c(OCC)cc1NC(=O)CCc1ccc(OC)cc1,i,>57

(list continues)
YjeE inh | PK Bst | smiles
i | . | Cc1cccn2c(N)c(-c3ccccc3)nc12
i | . | CCCCNc1cc(=O)n(C)c(=O)[nH]1
i | >57 | CCOC(=O)C(NC(=O)c1ccc(OC)cc1)(Nc1cc(C)on1)C(F)(F)F (stereo not given)
i | . | O=S(=O)(Nc1ccc(-c2nc3cccnc3s2)cc1)c1cccs1
i | . | CN1CCN(c2ncc3nc(-c4ccc(Cl)cc4)c(=O)n(CCC#N)c3n2)CC1
i | >57 | COc1ccc(Br)cc1S(=O)(=O)N1CC(C)OC(C)C1 (stereo not given)
i | >57 | Cc1ccc2cc(CN(CC3CCCO3)S(=O)(=O)c3c(C)ccc4nsnc34)c(=O)[nH]c2c1 (stereo not given)
i | >57 | CC(=O)c1c(C)nc2ccccn12
i | >57 | COc1ccccc1NC(=O)Nc1ccnn1C1CCCCC1
i | >57 | Cc1ccc(-c2nnn(CC(=O)NCCc3ccc4c(c3)OCO4)n2)o1
i | >57 | O=C(COc1ccc(S(=O)(=O)N2CCCCC2)cc1)N1CCCCCC1
i | >57 | CC(C)n1c(NCc2cccs2)nc2ccccc21
i | >57 | COc1ccc(Br)c(C(=O)Nn2c(C)nc3ccccc3c2=O)c1
i | . | O=C(Nc1nc(-c2cccs2)cs1)c1cccc(S(=O)(=O)N2CCCCCC2)c1
i | . | COc1ccc(N2CCN(C(=O)c3ccc4nc(N5CCCCC5)sc4c3)CC2)cc1
i | i | c1ccn2c(c1)nc1c2nc2ccccn21
i | >57 | CCCc1[nH]nc2c1C(c1ccccc1OC)C(C#N)=C(N)O2 (stereo not given)
i | >57 | Cc1nc2nc[nH]n2c(=O)c1NS(C)(=O)=O
i | . | Cn1cc(S(=O)(=O)N2CCN(c3cccc(C(F)(F)F)c3)CC2)c(=O)n(C)c1=O
i | >57 | CSCCC(NC(=O)c1ccccc1)C(=O)NCc1ccco1 (stereo not given)
i | . | CN(C)c1ncc2nc(-c3ccccc3)c(=O)n(C[C@H]3CCCO3)c2n1

Bioassay records: PubChem, National Center for Advancing Translational Sciences (NCATS)

A portion of the library; the hit share may differ from the screen's.
